# FEN1 inh: human FEN1 inhibition; P39748; Recombinant FEN1 flap cleavage, fluorescence, 15 min; Potency, µM (doses to about 114 µM), without a hit: at the highest dose activity change, negative = inhibition, usual class: inhibitors; 0.35% of 390,000 active; note: nearly all actives have a fitted effect of over 65% in size
# Target sequence (P39748 whole entry, looked up): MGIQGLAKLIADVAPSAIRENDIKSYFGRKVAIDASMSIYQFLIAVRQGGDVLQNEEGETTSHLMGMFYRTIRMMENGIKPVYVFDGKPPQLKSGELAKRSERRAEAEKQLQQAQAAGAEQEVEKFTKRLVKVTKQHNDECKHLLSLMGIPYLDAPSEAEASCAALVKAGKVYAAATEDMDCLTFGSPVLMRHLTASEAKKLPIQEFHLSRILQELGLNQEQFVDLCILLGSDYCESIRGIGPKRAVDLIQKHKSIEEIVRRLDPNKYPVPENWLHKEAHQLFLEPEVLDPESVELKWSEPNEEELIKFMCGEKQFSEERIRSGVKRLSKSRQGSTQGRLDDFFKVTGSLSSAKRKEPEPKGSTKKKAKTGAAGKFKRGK
#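 Nuclease activity of 10 nM FEN1 was measured after 15 min of room-temperature exposure to titrated compounds, by adding 50 nM flap substrate and reading plates at 0 and 15 min.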
# TDP1 block: TDP1 (human) enzyme inhibition | 0.28% of 350,000 active | Potency, µM (series often up to 130 µM), for inactives: at the highest dose activity change, negative = inhibition, most hits filed as inhibitors | recombinant TDP1, AlphaScreen DNA substrate cleavage | Q9NUW8; note: nearly all actives have a fitted effect of over 40% in size
#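 Compounds were preincubated with Tdp1 (1 nM final) for 15 min at room temperature before substrate (15 nM final) started a 5 min reaction; beads (10 ug/ml final) were then added for 10 min before AlphaScreen detection.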
# Starred values were filed as active, the others as inactive; . = not tested or not shown; & = joins results of further samples; [ ] = another dose, or the depositor's remark. Calls come from the whole dose curve; as a rule, active = well fitted inhibition curve with a large enough effect; inconclusive = small, poorly fitted or top-dose-only effect; inactive = no such curve, though single readings can be large or run the other way. % is set by controls: 0 for no effect and ±100 for the full control effect; potency is the fitted concentration of half-maximal effect. Not all compounds are listed, and most or all hits are left out here.
1	COCCn1cc(C(=O)N2CCC3(CC2)OCCO3)c2c3ccccc3n(C)c2c1=O
2	COc1ccccc1CCNC1CCCC(C)C1 (stereo not given)
3	CC(=O)Nc1ccccc1C(=O)C(=O)Nc1cccc(C(=O)N2CCC3(CC2)OCCO3)c1
4	COC(=O)C1=C(N)OC(C)=C(C(C)=O)C12C(=O)N(C)c1ccccc12 (stereo not given)
5	O=S(=O)(c1ccccc1)N1CCCCC1c1cccnc1 (stereo not given)
6	CCOc1ccc(NC(=O)C2C3c4ccccc4C(c4ccccc43)C2C(=O)O)cc1 (stereo not given)

entry no. | 1 | 2 | 3 | 4 | 5 | 6
FEN1 inh | -1% | -8% | 1% | 3% | -7% | -4%
TDP1 block | 5% | 0% | -10% | 3% | 5% | 9%

7	N=c1sccn1Cc1ccc(Cl)cc1Cl
8	CC(C)CNP(=S)(c1ccccc1)C(C)(C)C (stereo not given)
9	O=[N+]([O-])NC1=NCCN1Cc1ccc(Cl)nc1
10	CCC(=NCCCN(CC)CC)c1c(O)n(-c2ccccc2)c(=O)[nH]c1=O
11	COc1ccc(-n2c(O)c(C(C)=NCc3ccc4c(c3)OCO4)c(=O)[nH]c2=O)cc1
12	OC(CN1CCCCC1)c1c[nH]c2ccccc12 (stereo not given)

entry no. | 7 | 8 | 9 | 10 | 11 | 12
FEN1 inh | 1% | -8% | 13% | 4% | -7% | 17%
TDP1 block | 8% | . | 19% | -3% | 4% | .

13	COC(=O)COc1ccc(/C=C2\C(=O)NC(=S)N(c3ccc(C)cc3)C2=O)cc1OC
14	COc1ccc(-n2c(/C=C/c3ccc4c(c3)OCO4)nc3ccccc3c2=O)cc1
15	Cc1cc(C)n2nc(SC(C)C(=O)N3CCC4(CC3)OCCO4)nc2n1 (stereo not given)
16	CSc1nc(N2CCN(C)CC2)c2ccccc2n1
17	NCCc1c[nH]c2ccccc12
18	COc1ccc(C(C)=O)cc1CN1CC=C(c2ccccc2)CC1

entry no. | 13 | 14 | 15 | 16 | 17 | 18
FEN1 inh | 0% | -5% | -14% | -11% | -16% | -8%
TDP1 block | . | -8% | 3% | 0% | 9%[56.1 µM] | 7%

# A different layout for 4 compounds above.
# Under each structure: FEN1 inh	TDP1 block
15) Cc1cc(C)n2nc(SC(C)C(=O)N3CCC4(CC3)OCCO4)nc2n1 (stereo not given)
 : -14%	3%
16) CSc1nc(N2CCN(C)CC2)c2ccccc2n1
 : -11%	0%
17) NCCc1c[nH]c2ccccc12
 : -16%	9%[56.1 µM]
18) COc1ccc(C(C)=O)cc1CN1CC=C(c2ccccc2)CC1
 : -8%	7%

# The list continues.
19	CC(NC1=NCCS1)c1ccccc1 (stereo not given)
20	CC(C)n1c(O)c(C=NCc2cccnc2)c(=O)[nH]c1=S
21	CCOC(=O)c1nc2ccccc2c(=O)n1-c1cccc(C)c1
22	CNC(=S)N/N=C1\C2CN3CCN(C2)CC1(c1ccccc1)C3
23	C[C@]12CCC(=O)C=C1CC[C@@H]1[C@@H]2CC[C@@]2(C)[C@H]1CC[C@]2(C)O
24	CC#CP(=O)(OC)C(O)(CF)c1ccccc1 (stereo not given)

entry no. | 19 | 20 | 21 | 22 | 23 | 24
FEN1 inh | 21% | 16% | -5% | -5% | -4% | -1%
TDP1 block | 0% | 4% | 2% | 0% | 5%&0%&11% | 0%

25	CC(=NCCc1ccccc1)c1c(O)[nH]c(=O)[nH]c1=O
26	Cc1ccc(C)c(OCC(=O)N2CCCN(C)CC2)c1
27	COc1cc(NC(=O)CN2C3CCC2CC(O)(c2cccnc2)C3)cc(OC)c1 (stereo not given)
28	CC[C@@H]1CN2CC[C@@H]1C[C@H]2[C@H](O)c1ccnc2ccc(OC)cc12
29	O=c1[nH]c(=S)n(C2CC2)c(O)c1/C=N/Nc1ccccc1
30	CCC12CN3CCN(CC(C3)/C1=N/NC(N)=O)C2

entry no. | 25 | 26 | 27 | 28 | 29 | 30
FEN1 inh | -9% | -9% | -8% | . | -11% | -1%
TDP1 block | 0% | 3% | 0% | 1% | 6% | 1%

31	O=P(O)(O)Cc1c(Cl)cccc1Cl
32	CC[C@H]1CN2CCC1C[C@@H]2[C@@H](O)c1ccnc2ccc(OC)cc12 (stereo not given in full)
33	CCN1CCN(C(=O)Cc2coc3cc(C)cc(C)c23)CC1
34	CN(C)c1ccc(C2C3C=CC(C3)C2(C#N)C(=O)O)c(Br)c1 (stereo not given)

entry no. | 31 | 32 | 33 | 34
FEN1 inh | 0% | 6% | -2% | 1%
TDP1 block | 5% | . | 0% | 11%

# In a second layout: results already given.
no.	SMILES	FEN1 inh	TDP1 block
31	O=P(O)(O)Cc1c(Cl)cccc1Cl	0%	5%
32	CC[C@H]1CN2CCC1C[C@@H]2[C@@H](O)c1ccnc2ccc(OC)cc12 (stereo not given in full)	6%	.
33	CCN1CCN(C(=O)Cc2coc3cc(C)cc(C)c23)CC1	-2%	0%
34	CN(C)c1ccc(C2C3C=CC(C3)C2(C#N)C(=O)O)c(Br)c1 (stereo not given)	1%	11%
